PABP polyA inh – PABP poly(A) RNA binding inhibitors, primary screen, biochemical, fluorescence polarization, uHTS; Polyadenylate-binding protein 1 (Homo sapiens), P11940; inhibition, % at 35 µM; 290,000 compounds, 1% hits; AID 2014, 2009;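 active means 50% or more with normal probe brightness, or confirmed in later tests; inconclusive means above 50% with abnormal brightness, or retests that disagree; inactive means below 50% or failed in later tests; about a fifth of its hits are not listed in these tables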;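 further: calls also rest on retests at 20 µM and on dose response follow-up; controls were probe without protein and protein plus probe with vehicle; some compounds called inactive have numbers as strong as hits; many hits fall short of the cut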
Yeast UUG start – modulators of yeast start codon fidelity, primary screen, whole organism, S. cerevisiae, single point, plate reader. AID 602363, 2012. activity score, % at 18.7 µM. S. cerevisiae UUG-firefly luciferase reporter, luminescence/redox ratio. 350,000 compounds, 0.13% hits;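 active means replicate mean at a twofold rise or more, about +100% in these data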;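 further: firefly luciferase made from a UUG start codon reports start codon fidelity; reporter light over untreated wells divided by growth signal over untreated wells; some hits fall short of that in this replicate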
Rce1 inh – yeast Rce1p protease inhibitors, primary screen, biochemical, fluorescence, cell-free homogeneous. CAAX prenyl protease 2 (Saccharomyces cerevisiae (strain ATCC 204508 / S288c)), Q03530. yeast membranes, quenched prenylated peptide cleavage fluorescence. calls only. 290,000 compounds, 0.27% hits. AID 2563, 2010;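 active means fall in fluorescence gain of 50% or more versus controls, with final raw signal at or below 3038400; inconclusive means same 50% fall but final raw signal above 3038400; inactive means fall in fluorescence gain under 50%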;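 further: plate controls were neutral control wells for no effect and wells lacking membranes for full effect; tested at 10 µM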
Target sequence (Q03530 whole entry, looked up): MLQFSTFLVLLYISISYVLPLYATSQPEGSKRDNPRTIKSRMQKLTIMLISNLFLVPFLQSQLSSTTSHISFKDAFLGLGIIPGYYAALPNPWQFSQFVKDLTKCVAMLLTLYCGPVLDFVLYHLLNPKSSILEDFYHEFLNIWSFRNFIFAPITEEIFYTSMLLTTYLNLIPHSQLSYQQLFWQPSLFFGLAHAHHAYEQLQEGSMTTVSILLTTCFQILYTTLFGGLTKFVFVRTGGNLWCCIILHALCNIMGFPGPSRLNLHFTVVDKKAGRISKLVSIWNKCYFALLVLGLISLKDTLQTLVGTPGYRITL
CSC inhib – cancer stem cell viability inhibitors, primary screen, luminescence; cancer stem cell-like cells viability; 300,000 compounds, 1.1% hits; inhibition, % at 7.5 µM;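 active means mean at 75% or more and at least half the replicates too; inconclusive means mean and replicates disagree; tested in HMLE shEcad cells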;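 further: 0% = median of negative and 100% = median of positive control wells; the first replicate is given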
HIV Env fusion – inhibitors of HIV-1 Env-driven cell-cell fusion, primary screen, HeLa-JRFL effector, CEM21 target cells, luciferase; inhibition, % at 12.3 µM; 360,000 compounds, 1.1% hits; AID 651610, 2012;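 active means mean replicate inhibition score of at least 50 and every replicate individually at or above 50; inconclusive means only one of the two criteria met; inactive means mean below 50 and not all replicates reaching 50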;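 further: 0% = plate neutral controls and 100% = maraviroc near 300 nM; one replicate is shown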
MT1-MMP act inh – blockers of MT1-MMP proenzyme processing, primary screen, HT1080 RFP-PRO-GFP cells, GFP/RFP fluorescence | Matrix metalloproteinase-14 (Homo sapiens), P50281 | GFP/RFP ratio fluorescence, overnight; percent of plate control window, DMSO zero | GFP/RFP ratio change, % at 20 µM | 360,000 compounds, 0.061% hits;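 active means GFP/RFP ratio change of at least 30% with cell ATP level not reduced by more than half and red fluorescence within 50% of control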; further: strong numbers were not always called active
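Assay system: HT1080 RFP-PRO-GFP cells | Dosing: 20 µM single dose, 1% DMSO | Incubation: Cells overnight before dosing, compound overnight, 37 °C, 5% CO2 | Evaluation: GFP/RFP fluorescence ratio | Control set: DMSO-only wells and HT1080 RFP-L50D-GFP cell wells as references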
eIF4H FP inh – human eIF4H binding inhibitors, primary screen, translation initiation inhibitor project, biochemical, uHTS, fluorescence polarization; Eukaryotic translation initiation factor 4H (Homo sapiens), Q15056; eIF4H fluorescence polarization binding assay; inhibition, % at 35 µM; 290,000 compounds, 0.94% hits;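 active means 50% or more with normal probe brightness, or confirmed in later tests; inconclusive means above 50% with abnormal brightness, or retests that disagree; inactive means below 50% or failed in later tests; about a fifth of its hits are not listed in these tables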;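 further: calls also rest on retests at 20 µM and on dose response follow-up; 0% = protein and probe with vehicle and 100% = probe without protein; strong numbers were not always called active; many hits fall short of the cut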
eIF4H FP inh retest – further read-out of eIF4H FP inh, marked with its call; inhibition, %; compound at 20 µM; confirmation average;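 mean of two retest wells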
PABP polyA inh retest – second read-out of PABP polyA inh, no call of its own (marks repeat the call); inhibition, %; compound at 20 µM; confirmation repeats;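 mean of two retest wells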
MT1-MMP act inh RFP – also measured in MT1-MMP act inh; calls as there; RFP signal change, %; measured here: RFP expression control read;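 0 = vehicle wells; hits needed this value within 50% of zero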
An asterisk follows results filed as active; i = inactive; u = inconclusive; x = not tested or not shown; + = active, no number.

SMILES	PABP polyA inh	Yeast UUG start	Rce1 inh	CSC inhib	HIV Env fusion	MT1-MMP act inh	MT1-MMP act inh RFP	eIF4H FP inh	others
CC1CCC2(CC1)NC(=O)N(NC(=O)C1CCN(C(=O)c3ccc(Cl)cc3)CC1)C2=O (stereo unspecified)	x	-11	x	x	3	5	-10	x
COC(=O)Cn1c(=N)n(CCN2CCCCC2)c2ccccc21	8	-19	i	-30	x	1	3	-10
C/C=C1\NC(=O)[C@H](C)NC(=O)[C@@H](NC(=O)[C@@H](Cc2ccc(O)cc2)NC(=O)[C@@H](NC(=O)/C(C)=C/C)C(C)C)[C@@H](C)OC(=O)[C@H](CCCCc2ccc(O)cc2)NC(=O)[C@@H](CCC(=O)O)NC1=O	x	26	x	x	-35	1	0	x
O=C(Nc1ccn(CC(=O)N2CCN(c3ccccn3)CC2)c(=O)n1)OCc1ccccc1	x	-1	x	-9	7	2	1	x
Cc1ccc(NC(=O)c2cnn(C)c2)cc1[N+](=O)[O-]	9	x	i	2	x	2	2	13
Cc1ccc(OCCCC(=O)Nc2ccccc2C(F)(F)F)cc1	-1	-17	i	-3	x	-3	-1	-2
Cc1cc(C)cc(NC(=O)CSc2nc(N)c(NC(=O)c3ccc(Br)o3)c(=O)[nH]2)c1	1	-12	i	-5	2	1	3	-12
O=C(CCN=C1NS(=O)(=O)c2ccccc21)OCC(=O)c1ccccc1Cl	x	x	i	10	-32	8	0	x
CC1(C(=O)Nc2ccc3c(c2)OCO3)CCN1C(=O)Cc1ccc(-c2ccccc2)cc1 (stereo unspecified)	x	48	x	x	30	3	-25	x
O=C(Nc1nc2n(n1)C(c1ccc(F)cc1)CC(c1ccccc1)N2)c1ccco1 (stereo unspecified)	8	x	i	-8	8	2	1	-5
CC(CCc1ccco1)NC(=O)CCc1nnc2ccc(NCc3ccccc3Cl)nn12 (stereo unspecified)	1	-5	i	7	77*	0	-2	-4
CCc1ccc(C2CC(=O)N(c3ccc(F)cc3)C3=C2C(=O)OC3)cc1 (stereo unspecified)	7	x	i	-7	2	7	5	-3
CCCC(=O)O[C@H]1C[C@@H](C)N(C(=O)c2ccccc2)c2ccc(C)cc21	-7	x	i	7	x	-2	-6	3
Cc1cnc(CNC(=O)c2csc(COCCO)n2)cn1	x	-11	x	x	-6	5	-3	x
COc1ccc(-n2c(=O)c3c4c(sc3n(Cc3cccc(F)c3)c2=O)CN(C(C)=O)CC4)c(OC)c1	6	x	i	-6	x	x	x	-9
Cc1sc2nc(CN3CCOCC3)nc(NS(=O)(=O)c3ccc4c(c3)OCCO4)c2c1C	7	-2	i	-12	-315	2	2	-1
COc1ccc2[nH]cc(CCNS(=O)(=O)c3ccc(NC(C)=O)cc3)c2c1	u	-12	i	11	-3	3	4	2
Cc1ccccc1N(CC(=O)NC1CCCC1)C(=O)c1oc(C(C)(C)C)cc1C	3	-27	i	19	x	-24	-17	2
CCN1CCN(C(=O)/C=C/c2ccccc2[N+](=O)[O-])CC1	-7	x	i	x	5	-2	3	2
Cc1c(NC(=O)Cn2[nH]c(=O)c3ccccc3c2=O)c(=O)n(-c2ccccc2)n1C	-2	0	i	-6	x	0	-3	4

Copied from the results shown, three compounds:
SMILES	PABP polyA inh	Yeast UUG start	Rce1 inh	CSC inhib	HIV Env fusion	MT1-MMP act inh	MT1-MMP act inh RFP	eIF4H FP inh	others
CC1CCC2(CC1)NC(=O)N(NC(=O)C1CCN(C(=O)c3ccc(Cl)cc3)CC1)C2=O (stereo unspecified)	x	-11	x	x	3	5	-10	x
COC(=O)Cn1c(=N)n(CCN2CCCCC2)c2ccccc21	8	-19	i	-30	x	1	3	-10
C/C=C1\NC(=O)[C@H](C)NC(=O)[C@@H](NC(=O)[C@@H](Cc2ccc(O)cc2)NC(=O)[C@@H](NC(=O)/C(C)=C/C)C(C)C)[C@@H](C)OC(=O)[C@H](CCCCc2ccc(O)cc2)NC(=O)[C@@H](CCC(=O)O)NC1=O	x	26	x	x	-35	1	0	x

Continued:
SMILES	PABP polyA inh	Yeast UUG start	Rce1 inh	CSC inhib	HIV Env fusion	MT1-MMP act inh	MT1-MMP act inh RFP	eIF4H FP inh	others
O=C(Nc1ccc2oc(-c3ccc(F)cc3)nc2c1)c1ccccc1F	10	-13	i	7	x	1	-4	-15
CCOC(=O)c1c(NC(=O)CN2C(=O)NC3(CCCCC3)C2=O)sc(C)c1-c1ccc(C)cc1	48	0	i	41	-24	0	0	3
Oc1ccccc1C=NC1=NN(c2cccc(C(F)(F)F)c2)CC1	-1	-7	i	-4	-3	-1	0	-12
COC(=O)CSc1nc2ccccc2o1	-4	-24	i	8	-26	3	2	-14
Cc1c(C(=O)NCc2ccc3c(c2)OCO3)sc(=O)n1Cc1ccc(S(C)(=O)=O)cc1	x	-7	x	x	8	6	-13	x
O=C(COC(=O)c1ccc(Cl)c(S(=O)(=O)N2CCN(c3ccc(F)cc3)CC2)c1)Nc1cccc(Cl)c1	-6	7	i	-2	-2	-6	-2	-2
O=C(COc1ccccc1)Nc1ccc2c(c1)Cc1cc(NC(=O)COc3ccccc3)ccc1-2	8	-10	i	8	x	-1	5	-4
O=C(NCc1ccccc1)C1CCN(S(=O)(=O)c2cc([N+](=O)[O-])ccc2Cl)CC1	12	x	i	27	-10	-1	1	-2
Nc1cccc2c1C(=O)N(CCOc1ccccc1F)C2=O	25	-47	i	-12	-64	-4	3	46
O=C1NC(Cc2ccccc2)c2nc3cc(F)c(F)cc3c(=O)n2-c2ncccc21 (stereo unspecified)	x	1	x	x	-87	-4	2	x
COC(=O)c1ccc2c(=O)n(CCCCCC(=O)N3CCN(c4ccccc4)CC3)c(=O)[nH]c2c1	3	-4	i	-10	5	10	-10	-2
Cc1[nH][nH]c(=O)c1C(c1ccc(-c2ccccc2C(=O)O)o1)c1c(C)[nH][nH]c1=O	49	x	i	-3	-1	3	2	36
N#Cc1ccc(NC(=O)Nc2cccc(C#N)c2)cc1	1	x	i	23	46	-1	-14	3
C=CCNC(=O)c1ccc(CN2CCC(Cc3ccccc3)CC2)cc1	84*	-11	i	-7	6	1	3	95*
Cc1ccc(S(=O)(=O)Nc2ccc(=O)n(Cc3ccc(Cl)c(Cl)c3)c2)cc1	15	x	x	-10	3	-8	1	11
O=C(Nc1nnc([C@H]2C[C@H](O)[C@@H](CO)O2)s1)c1ccc(Oc2ccccc2)cc1	x	11	x	x	33	3	-2	x
Cc1nnc(SCC(=O)Nc2ccc(S(N)(=O)=O)cc2)n(N)c1=O	x	-25	x	7	11	-3	2	x
COc1ccc2c(c1)c(=O)c(C(=O)c1ccc(C)cc1)cn2CC(=O)Nc1ccc(F)cc1	-5	-23	i	-4	-23	19	-9	-1
Cc1nc2scc(C)n2c(=O)c1S(=O)(=O)NCCc1ccccc1	x	-12	i	-13	1	-2	0	x
O=C(O)c1ccc(NC2=Nc3cccc4cccc2c34)cc1	3	-7	i	x	1	-1	-1	-7
COc1ccc(CCn2c(-c3ccco3)nc3nc4ccccc4nc32)cc1	88*	-11	i	-1	-21	-46	1	67*
O=C(CCSc1ccccc1)Nc1ccccc1C(=O)N1CCCC1	3	1	i	10	-11	-3	-5	4
O=C(COC(=O)Cn1cnc2ccccc21)Nc1cc2c(cc1Cl)C(=O)c1ccccc1C2=O	2	-13	i	-6	-175	2	0	-4
C=CCn1c(NCc2ccc(N(C)C)cc2)nc2ccccc21	10	-11	i	-29	-136	-4	1	9
O=C(NCCOc1ccccc1)C1CCC(=O)N(C2CCCCCC2)C1 (stereo unspecified)	-3	-16	i	2	19	2	9	-7
S=C(Nc1ccc2nsnc2c1)N1CCCCCC1	27	x	i	4	5	-21	5	13
CC(CN1CCCCC1)C(=O)NNC(=O)C12CC3CC(CC(C3)C1)C2 (stereo unspecified)	8	0	i	4	5	6	8	2
Fc1ccc(Cn2nnnc2C(c2cccs2)N2CCCCCC2)cc1 (stereo unspecified)	-4	-16	i	21	x	-14	-12	-2
O=C(O)C1C2C=CC(C2)C1C(=O)NCc1ccc2c(c1)OCO2 (stereo unspecified)	3	-9	i	-9	x	-3	2	2
O=C(O)C1CC=CCC1C(=O)Nc1ccc2c(c1)OCCO2 (stereo unspecified)	0	-14	i	-7	-14	5	5	8
COc1ccc(CCNCC(=O)Nc2ccc(C(=O)N3CCCCC3)cc2)cc1	2	10	i	-9	-7	-1	-5	2
O=C(CCCOc1ccc(Cl)cc1)N1CCCCCC1	-4	-1	i	5	-16	-1	4	-6
NC1=NC(=Nc2ccccc2)c2ccccc21	-11	-13	i	6	-19	-5	-1	1
Cc1cc(C)nc(SC/C=C/c2ccccc2)n1	3	0	i	x	0	-1	0	0
Cc1cc(N2C(=O)C3C4C=CC(C4)C3C2=O)ccc1NC(=O)c1cccs1 (stereo unspecified)	-9	-11	+	31	21	3	1	63	eIF4H FP inh retest=-18;PABP polyA inh retest=-3
COc1nc(NCCC2=CCCCC2)nc(OC)n1	1	x	i	-12	-48	-2	0	-8
S=c1[nH]nc(-c2ccncc2)n1Cc1ccccc1	0	x	i	-3	x	2	-5	6
CC(C)NC(=O)C1CCN(S(=O)(=O)c2ccc(N3CCCC3=O)cc2)CC1	-5	-43	i	9	-4	1	-1	1
CNC(=S)N(Cc1cc2cc(C)ccc2n2nnnc12)CC(C)(C)CN(C)C	7	-15	i	1	-13	-2	-1	9
O=C(/C=C/c1ccco1)Nc1ccccc1N1CCOCC1	7	x	i	7	12	-1	3	12
COC(=O)c1c(/N=C/N(C)C)sc2c1CCN(c1ncc(C(F)(F)F)cc1Cl)C2	6	-3	i	7	x	-1	2	-3
COc1ccc(CCNC(=O)/C=C/c2ccc(OC)c(S(=O)(=O)N3CCOCC3)c2)cc1	14	x	i	20	21	-8	-4	-2
Cc1sc2nc(CN3CCCCC3)nc(Nc3ccc4c(c3)OCCO4)c2c1C	-2	x	i	x	-3	3	1	-2
Cc1cccnc1C1=NOC(Cc2ccccc2)C(=O)N1Cc1ccccc1F (stereo unspecified)	x	9	x	x	15	4	-2	x

5 entries drawn at random from the list so far, as already listed:
SMILES	PABP polyA inh	Yeast UUG start	Rce1 inh	CSC inhib	HIV Env fusion	MT1-MMP act inh	MT1-MMP act inh RFP	eIF4H FP inh	others
Cc1ccccc1N(CC(=O)NC1CCCC1)C(=O)c1oc(C(C)(C)C)cc1C	3	-27	i	19	x	-24	-17	2
O=C(NCc1ccccc1)C1CCN(S(=O)(=O)c2cc([N+](=O)[O-])ccc2Cl)CC1	12	x	i	27	-10	-1	1	-2
N#Cc1ccc(NC(=O)Nc2cccc(C#N)c2)cc1	1	x	i	23	46	-1	-14	3
O=C(Nc1nc2n(n1)C(c1ccc(F)cc1)CC(c1ccccc1)N2)c1ccco1 (stereo unspecified)	8	x	i	-8	8	2	1	-5
O=C(Nc1ccn(CC(=O)N2CCN(c3ccccn3)CC2)c(=O)n1)OCc1ccccc1	x	-1	x	-9	7	2	1	x

Bioassay records from PubChem BioAssay.
